From PubChem
NPYLR7 ag: agonists of mosquito NPYLR7 receptor, primary screen, cell-based, Aedes aegypti, calcium fluorescence, mosquito biting behavior; Aedes aegypti neuropeptide Y-like receptor 7 (NPYLR7); HEK293T NPYLR7/Galpha15, GCaMP6s calcium fluorescence; activation, % at 10 µM; 270,000 compounds, 0.15% hits; in the data active means activation above about 40%;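 further: 0% = vehicle and 100% = reference agonist at the receptor; some compounds past the cut are filed as inactive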
NPYLR7 ag max-min: further read-out of NPYLR7 ag, marked with its call; activation, %; measured here: Max-Min RFU normalised activation; some inactives read as strong as hits;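 span of the calcium signal over five minutes; 0% = vehicle and 100% = native peptide agonist; compound fluorescence can raise it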
An asterisk follows results filed as active; & = joins results of further samples. An excerpt, so the mix of outcomes need not match the whole.

smiles	NPYLR7 ag	NPYLR7 ag max-min
CC1CCCC2(C1)C1=C(CCC1)N=C(SCC(=O)Nc1ccccc1)C2C#N (stereo not drawn)	-2.2	-4.8
CN(Cc1cccc2cccnc12)c1ncnc2nc[nH]c12	2.9	1.6
Cc1csc(NC(=O)CN(C)C(C)c2ccc(C)s2)n1 (stereo not drawn)	6.0	4.0
OC(CC1CCC1)(CC1CCC1)c1ccc(CN(Cc2ccco2)Cc2ccco2)o1	-8.2	4.9
CC(=O)c1cc(C(=O)OCC(=O)Nc2ccc(Cl)cc2)c2ccccn12	-2.4	-5.9
O=C(c1ccc(CN2CCC(Cc3ccccc3)CC2)cc1)N1C2CCC1CC(Oc1cccc(C(F)(F)F)c1)C2 (stereo not drawn)	19.7	13.0
CCn1cc(C2OCCC2CNC2CC(C)OC2=O)cn1 (stereo not drawn)	-0.2	-0.5
COc1cc(NC(=O)NCCS(=O)(=O)c2c(C)n(C)c3ccccc23)cc(OC)c1	1.7	12.0
Cc1sc(NC(=O)c2cccc(N3CCCC3=O)c2)nc1-c1ccc(F)c(F)c1	-3.4	-6.5
O=C(c1cc(-c2ccccc2Cl)nc2cc(-c3ccccc3)nn12)N1CCc2ccccc2C1	18.8	21.2
CC(C)N1CCC(CNC(=O)c2ccc(C#CC(C)(C)O)cc2)C1 (stereo not drawn)	18.6	8.7
Cc1ccc(Nc2ncccc2C(=O)O)cc1C	-21.8	-27.3
CCOC(=O)CN1C(=O)CCN(C(=O)Cc2ccccc2)CC(O)c2ccccc21 (stereo not drawn)	0.6	3.2
COc1ccc(-n2c(SCC(=O)NC3CCCC3)nc3c(c2=O)SCC3)cc1OC	-3.7	-5.7
c1nc(N2CCOCC2)c2cn[nH]c2n1	18.1	17.9
CCOC(=O)C1(Cc2ccccc2C)CCCN(C(=O)CCc2cnccn2)C1 (stereo not drawn)	3.2&2.3	0.8&1.6
CCC(C)N(CC(=O)N(Cc1cccn1Cc1ccc(Br)cc1)C1CCCCC1)C(=O)CCc1ccccc1 (stereo not drawn)	-3.0	7.9
CCC(O)CN(Cc1ccccc1)Cc1ccccc1C (stereo not drawn)	7.3	23.0
CCCn1ncc(C(=O)NCc2cn3c(n2)SCC3)c1C	18.8	7.2
CC(C)(C)C1OCCCC1CNC(=O)c1ccc(C(N)=O)cc1 (stereo not drawn)	2.7	2.3
O=C(NC1CCCN(Cc2ccccc2F)C1)c1cccs1 (stereo not drawn)	1.0	-1.9
CN(C)c1ccc(C(=O)N2CCN(c3ccc(NC(=O)c4ccc(F)cc4)cn3)CC2)cc1	17.6	8.0
CS(=O)(=O)c1ccc2nc(N(Cc3cccnc3)C(=O)c3ccc4ccccc4c3)sc2c1	-11.4	-17.6
CCN1CCN(C2=C(c3c(-c4ccccc4)[nH]n(-c4ccccc4)c3=O)C(=O)N(c3ccc4c(c3)OCO4)C2=O)CC1	0.5	0.3
CCn1nc(C(=O)N2CCSCC2)c2c1CCC(NCc1ccc(OC(F)(F)F)cc1)C2 (stereo not drawn)	19.6	15.2
CCc1ccc(N2CCn3c2nc2c3c(=O)n(CC)c(=O)n2C)cc1	1.4	-2.7
Cn1cc(CNCC2CN(C3CC3)CCO2)c(-c2ccncc2)n1 (stereo not drawn)	2.8	0.7
CN(C)CCNC(=O)CCN1C(=O)CSC1c1cccc(C(F)(F)F)c1 (stereo not drawn)	2.0	11.0
CC1(C(=O)NCc2ccccc2Br)CCN1Cc1ccc(-c2ccccc2)o1 (stereo not drawn)	7.5	2.1
CCn1cc(NC(=O)N2CCN(C)CC2)c2ccccc21	-0.6	-3.7

Gathered by group: the compounds so far with a thiophene ring, fused or not
smiles	NPYLR7 ag	NPYLR7 ag max-min
Cc1csc(NC(=O)CN(C)C(C)c2ccc(C)s2)n1 (stereo not drawn)	6.0	4.0
O=C(NC1CCCN(Cc2ccccc2F)C1)c1cccs1 (stereo not drawn)	1.0	-1.9

The listing picks up with the 7 entries that preceded the break.
smiles	NPYLR7 ag	NPYLR7 ag max-min
CCN1CCN(C2=C(c3c(-c4ccccc4)[nH]n(-c4ccccc4)c3=O)C(=O)N(c3ccc4c(c3)OCO4)C2=O)CC1	0.5	0.3
CCn1nc(C(=O)N2CCSCC2)c2c1CCC(NCc1ccc(OC(F)(F)F)cc1)C2 (stereo not drawn)	19.6	15.2
CCc1ccc(N2CCn3c2nc2c3c(=O)n(CC)c(=O)n2C)cc1	1.4	-2.7
Cn1cc(CNCC2CN(C3CC3)CCO2)c(-c2ccncc2)n1 (stereo not drawn)	2.8	0.7
CN(C)CCNC(=O)CCN1C(=O)CSC1c1cccc(C(F)(F)F)c1 (stereo not drawn)	2.0	11.0
CC1(C(=O)NCc2ccccc2Br)CCN1Cc1ccc(-c2ccccc2)o1 (stereo not drawn)	7.5	2.1
CCn1cc(NC(=O)N2CCN(C)CC2)c2ccccc21	-0.6	-3.7
Cc1csc(SCc2csc(Cc3ccc(F)cc3Cl)n2)n1	1.7	12.1
O=C(CNC(=O)c1ccccc1)N=Nc1c(O)[nH]c2ccccc12	-7.0&14.6	-10.4&-1.8
COc1ccccc1-c1cc(C(=O)N2CCN(S(=O)(=O)C3CC3)CC2)[nH]n1	0.2	-1.0
CCCCOc1ccc(S(=O)(=O)NC(=O)C2(C)CCN2C(=O)c2c(C)noc2C)cc1 (stereo not drawn)	1.8	3.0
Cc1nc(CN2CCOc3c(O)cc(-c4ccccc4C)cc3C2)co1	-4.4	-7.3
O=C(c1ccc(CSc2nc(-c3ccccc3)cs2)cc1)N1C2CCC1CC(Oc1ccc(F)cc1F)C2 (stereo not drawn)	20.6	12.9
Cc1cc(C)cc(-n2ccnc(SCC(=O)Nc3ccc(C)cc3C)c2=O)c1	1.1	-2.5
CN(CC(=O)Nc1cccc(F)c1)Cc1csc(-c2cccc(Br)c2)n1	7.0	6.9
COc1ccc(-c2nc(CSc3nnc(-c4ccncc4)n3-c3ccc(OC)cc3)cs2)cc1	-0.6	-6.1
Cc1cc2c(C)nc(N3CCC(N4CCCN(C(=O)c5ccco5)CC4)CC3)nc2cc1F	7.3	3.6
c1cc(C2CN(c3cc(N4CCOCC4)ncn3)C2)ccn1	23.8	10.9
N#C/C(=C\c1ccc(Br)cc1)c1nn(CCO)c(N)c1C#N	3.0	1.0
CCCCCCCCCCCCCC(=O)N1CCCC1C(=O)Nc1nnc(-c2ccc(C)cc2)s1 (stereo not drawn)	10.2	12.5
CCCC(NC(=O)C(C)N1CCN(Cc2cc(C)no2)CC1)c1ccccc1 (stereo not drawn)	13.7	8.9
CN(Cc1ccc(O)cc1)C(=O)C1=NOC(c2ccccc2)C1 (stereo not drawn)	5.0&-4.1	3.9&-6.6
OC1CCN(c2ccnc(-c3cccc4[nH]ccc34)n2)C1 (stereo not drawn)	-6.8&0.3	-7.1&0.9
CC(C)C(NC(=O)N1CCCN(C=O)CC1)c1ccc(F)cc1 (stereo not drawn)	4.1	2.7
Cc1cc(C)nc(SCc2cc(=O)c(OC(=O)c3cccc(Cl)c3)co2)n1	-11.6	-5.8
Cc1sc(NC(=O)C(C)C)c(C(=O)N2C[C@H]3C[C@H](O)[C@@H](O)C[C@H]3C2)c1C	5.0	2.9
Cc1cnc(C(=O)OCC(=O)Nc2ccc(Cl)cc2F)cn1	1.6	2.0
CN(Cc1nc2ccccc2[nH]1)C(=O)c1ccc(Cn2cnnn2)cc1	9.9	7.9
O=C(O)COc1ccccc1CN1CCCC2(C1)C(=O)Nc1ccccc12 (stereo not drawn)	1.8	1.6
Cc1n[nH]c(C)c1C(NC(=O)c1ccc(N(C)C)cc1)C(=O)O (stereo not drawn)	3.8	2.7
CC(=O)Nc1ccc(Cl)c(C(=O)N(C)C2CCOC(C)(C)C2)c1 (stereo not drawn)	2.9	2.7
O=C(CSc1nncs1)N1CCN(C(=O)CSc2nncs2)CC1	2.4	5.1
COc1cccc2cc(-c3nnc(NC(=O)Cc4ccc(Cl)s4)o3)oc12	6.6	1.1
Cc1cc(Br)c(NC(=O)CN2CCN(C(=O)C3CC3)CC2)c(Br)c1	2.4	5.6
Cc1ccc(-n2c(=O)[nH]c3c(C(N)=O)nc(-c4ccco4)nc32)cc1	0.5	6.4
CCOC(=O)N1CCN(/C=C(\C#N)S(=O)(=O)c2ccc(Cl)cc2)CC1	3.6	0.9
Cn1nc(C(=O)N2CCC3(CCCNC3)C2)c2ccccc21 (stereo not drawn)	-0.9	-0.6

The closing 2 records of the part above open the next one:
smiles	NPYLR7 ag	NPYLR7 ag max-min
CCOC(=O)N1CCN(/C=C(\C#N)S(=O)(=O)c2ccc(Cl)cc2)CC1	3.6	0.9
Cn1nc(C(=O)N2CCC3(CCCNC3)C2)c2ccccc21 (stereo not drawn)	-0.9	-0.6
O=C1CC(C(=O)N2CCN(Cc3cccc(-c4noc(C5CCCC5)n4)c3)CC2)CN1Cc1ccccc1 (stereo not drawn)	2.8	-0.4
O=C(C=Cc1ccc(F)cc1)c1ccc([N+](=O)[O-])cc1	-11.3	-12.2
COC(=O)c1ccc(S(=O)(=O)Nc2ccsc2C(=O)OC)cc1	1.7	-3.6
O=C(c1scc2c1CCCC2)N1CC[C@H]2CC[C@@H](C1)N2	0.4	1.0
COc1ccc(C2CC(c3cccs3)=NN2C(=O)c2ccc(Br)o2)cc1 (stereo not drawn)	2.8	1.3
COc1cc(OC)cc(C(=O)OCCCN=C2NS(=O)(=O)c3ccccc32)c1	2.2	3.6
Cc1cnn(-c2ccc(C(C)N)cc2F)c1 (stereo not drawn)	6.3	3.3
CCCCN(C=O)c1c(CC)nc2c(OCc3ccc(Cl)cc3Cl)cccn12	2.3	5.6
COc1ccc(CCOC(=O)[C@@H]2CCCN2C(=O)c2cccc([N+](=O)[O-])c2)cc1OC	15.6	5.0
COC(=O)C1CCN(C(c2ccc(C)cc2)C2Sc3nc(C)nn3C2=O)CC1 (stereo not drawn)	-0.3	-1.4
Cc1ccsc1CN(C(=O)c1c(C)cc(C)n(C)c1=O)C1CC1	-2.0	-1.2
Cc1ccc(OC(=O)Oc2ccc(C)cc2)cc1	-1.4	-1.1
ClCc1cc(-c2ccccc2)on1	-1.2	-2.2
CCc1nnc(NC(=O)CC2CC3CCC2C3)s1 (stereo not drawn)	-24.0	-25.5
CCOc1nc(-c2cccc(OC)c2)n(-c2ccc(NC(=O)Nc3cccc(OC)c3)cc2)n1	37.8	32.0
CCOc1ccc(C(C2Sc3nc(C)nn3C2=O)N2CCC(O)CC2)cc1OC (stereo not drawn)	-3.5	-8.2
CCOC(=O)C1CCN(C(c2cccnc2)c2c(O)cc(C)n(Cc3ccco3)c2=O)CC1 (stereo not drawn)	12.1	7.9
CNC(=O)CC(C)N(C)C(=O)c1sc(C)nc1-c1ccccc1 (stereo not drawn)	25.3	17.6
O=C1CCCN1Cc1n[nH]c(=S)o1	4.8	11.7
Cn1nc2nc(NCCc3cccs3)nc(-c3cccc(F)c3F)c2c1N	6.6	1.5
COc1cccc2cc(-c3cc(=O)oc4cc(-c5ccccc5)c(OCC(N)=O)cc34)oc12	0.0	-8.2
O=C(NCCc1nnc2ccccn12)c1cccc(Oc2ccccc2)c1	3.0	17.3
CCOC(=O)C1(Cc2ccccc2)CCCN(C(=O)CCc2c(C)nn(C)c2C)C1 (stereo not drawn)	-9.4	-10.7
O=C(CCN(Cc1ccccc1)c1nc(-c2cccc(Br)c2)nc2ccccc12)NCc1cccc(C(F)(F)F)c1	10.8	10.6
COc1ccc(S(=O)(=O)NCC2CCCN(C(=O)CC3CCCC3)C2)cc1 (stereo not drawn)	2.1	-3.2
CCc1nc(C)cn1S(=O)(=O)c1cc(C)c(C)cc1C	-2.4	0.8
CCc1ccc(C(C2Sc3nc(CC)nn3C2=O)N2CCN(CC)CC2)cc1 (stereo not drawn)	-0.9	-6.0
CC(=O)c1[nH]c(C)c(C(=O)NC2CCCC(C)C2C)c1C (stereo not drawn)	-0.7	-2.8
CC1(CN2CCC(n3c(=O)[nH]c4ccccc43)CC2)OCc2ccccc2-n2cccc21 (stereo not drawn)	-4.4	-8.5
Brc1cc2c(cc1-c1nc3ccccc3s1)OCO2	2.2	1.4

Complete entries, looked up by structure. Order of screens: NPYLR7 ag	NPYLR7 ag max-min
COC(=O)C1CCN(C(c2ccc(C)cc2)C2Sc3nc(C)nn3C2=O)CC1 (stereo not drawn) across the screens: -0.3	-1.4
Cc1cc(C)cc(-n2ccnc(SCC(=O)Nc3ccc(C)cc3C)c2=O)c1 across the screens: 1.1	-2.5
